Screening data deposited in PubChem BioAssay by National Center for Advancing Translational Sciences (NCATS).
2A firefly: Primary qHTS Assay for Foot and Mouth Disease Virus Antivirals against NCGC Sytravon and CBC Compound Libraries: Firefly Luciferase Signal; HEK cells with a luciferase reporter of 2A StopGo recoding; Potency, µM (doses to about 57.5 µM), for inactives: at the highest dose signal change, negative = less light; 120,000 tested, 0.23% active; AID 1745856, 2022; active = well fitted falling curve with a large enough effect; inconclusive = small, poorly fitted or top-dose-only effect; inactive = no such curve, though single readings can be large or run the other way; note: nearly all actives have a fitted effect of over 60% in size; overnight with compound
2A Renilla: Primary qHTS Assay for Foot and Mouth Disease Virus Antivirals against NCGC Sytravon and CBC Compound Libraries: Renilla Luciferase Signal | HEK cells with a luciferase reporter of 2A StopGo recoding | Potency, µM (series often up to 57.5 µM), inactives show at the top dose signal change, negative = less light | 120,000 tested, 0.32% active | AID 1745857, 2022; active means well fitted falling curve with a large enough effect; inconclusive means small, poorly fitted or top-dose-only effect; inactive means no such curve, though single readings can be large or run the other way; note: nearly all actives have a fitted effect of over 55% in size; overnight with compound
* hit, by the source's call; ? = inconclusive; & = joins results of further samples; [ ] = another dose, or the depositor's remark. % is set by controls: 0 for no effect and ±100 for the full control effect; potency is the fitted concentration of half-maximal effect.

SMILES | 2A Renilla | 2A firefly
COc1ccc(Br)cc1C1SCC(=O)Nc2c1c(C)nn2-c1ccccc1C (stereo not given) | -0.9% | -19.8%
CCOc1ccccc1CNC(=O)CCn1ccc(C)n1 | -1.2% | 8.6%
CCOc1ccc(NC(=O)CSc2nnc(CNC(=O)C34CC5CC(CC(C5)C3)C4)n2CC)cc1 | -17.5% | 0.0%
O=C(O)/C=C/c1ccccc1 | -7.3% | 18.9%
CC(=O)c1cccc(NS(=O)(=O)c2c(C(=O)N3CCCCCC3)c(C)n(C)c2C)c1 | 123.9%[activator] | -17.0%
CCc1cccc(NC(=O)Cc2csc(NC(=O)c3ccoc3C)n2)c1 | -9.5% | 1.3%
CC(C)(CNC(=O)CSc1nnnn1-c1ccccc1)N1CCOCC1 | -9.1% | -10.1%
CC1Cn2c(C(=O)NCc3ccccc3Cl)cc3cccc(c32)S1 (stereo not given) | 14.8% | -20.7%
Cc1ccc(NC(=O)/C(=C/c2ccccc2)c2ccccc2)c(C)c1 | 14.8% | 0.0%
CCOP(=O)(OCC)c1nc(-c2cccs2)oc1NCc1ccccc1 | 213.4%[activator] | 12.4%
Cn1cnc2c1c(=O)n(CC(=O)OCCOc1ccccc1)c(=O)n2C | -10.6% | 2.6%
Cc1cccc(N2CCN(C(=O)c3cnc4c(C)cccn4c3=O)CC2C)c1 (stereo not given) | -1.5% | -10.3%
COc1ccc(-c2cn3nc(N4CCCC(C(=O)NCCCOC(C)C)C4)sc3n2)cc1 (stereo not given) | ? | 19.6%
Cc1ccc(NC(=O)CN2C(=O)c3cccnc3Oc3ccc(Cl)cc32)cc1 | 12.8% | 50.2%[activator]
Cc1cc2nc(/C(C#N)=C\c3c[nH]c4ccc(Br)cc34)[nH]c2cc1C | 11.7% | 29.8%
Cc1ccccc1-c1nc(C#N)c(N2CCN(c3ccccc3)CC2)o1 | -0.5% | 6.5%
O=C(NCc1ccccc1CN1CCCC1)c1ccc(-n2cccn2)cc1 | -12.5% | -9.1%
CCCC(C)N(C)CC(=O)NC(=O)NCCc1cccs1 (stereo not given) | 8.3% | 36.8%[activator]
N#Cc1nc(/C=C/c2ccccc2)oc1NCc1ccccc1 | 99.7%[activator] | 225.3%[activator]
CC(=O)N1CCc2cc(Br)cc(S(=O)(=O)N3CCC(C(=O)Nc4ccc(C(C)C)cc4)CC3)c21 | -3.7% | 1.9%
COC(=O)c1cc(NC(=O)c2nn(C)c3c2CSc2ccccc2-3)cc(C(=O)OC)c1 | -11.9% | -15.3%
COc1ccc(CC(=O)NC(c2cccs2)C2CCCC2)cc1 (stereo not given) | -3.1% | 0.8%
CCOc1ccc(S(=O)(=O)Nc2cc(C(=O)N(C)C)ccc2N2CCNCC2)cc1 | 4.9% | 0.3%
CCC(C(=O)Nc1cccc(C#N)c1)n1nc(-c2ccccc2)ccc1=O (stereo not given) | -10.6% | -11.0%
CCCCn1c(CN2CCc3ccccc3C2)nc2c1c(=O)[nH]c(=O)n2Cc1ccccc1 | -6.0% | -5.8%
CCOc1ccc(-c2cc3c(=O)n(Cc4nc(-c5ccc(OCC)c(OC)c5)oc4C)ccn3n2)cc1Cl | -3.2% | 7.9%
Cc1ccc(CNc2ncnc3c2cnn3-c2ccc(Cl)cc2)cc1 | -12.7% | ?
COC(=O)C(C)Sc1nnc2cc(C)c3cc(C)cc(C)c3n12 (stereo not given) | -15.1% | -2.1%
Clc1ccc(-c2cnc(CSc3n[nH]c(-c4ccccc4)n3)o2)cc1 | 11.9% | 0.0%
Cc1ccc(CS(=O)Cc2ccc(F)cc2Cl)cc1 (stereo not given) | 43.2%[activator] | 9.8%
Cc1ccccc1CSc1nc2c(=O)[nH]cnc2n1-c1ccccc1 | 30.8% | 27.3%
O=C(O)c1cccc(S(=O)(=O)Nc2ccc(Cl)c3cccnc23)c1 | -1.1% | -11.8%
Cc1ccc(C)c(C(=O)NCc2ccco2)c1 | 11.9% | 23.2%
CC(C)(C)c1ccc(-c2nc3cc(NC(=O)c4ccc([N+](=O)[O-])o4)ccc3o2)cc1 | -0.3% | 37.7%[activator]
Cc1cc(Nc2ccc(O)cc2)c2cc(Cl)ccc2n1 | -7.7% | 1.5%
CCCCCn1c(Sc2ccc(C)cc2)nc2c1c(=O)[nH]c(=O)n2C | -0.9% | 3.4%
Cc1ccn2c(Nc3ccc4c(c3)OCCO4)c(-c3ccc(C)s3)nc2c1 | 34.9%[activator] | 193.8%[activator]
CC12CC3CC(C)(C1)CC(NCc1ccncc1)(C3)C2 | 0.8% | 4.1%
CCc1cccc(CC)c1NC(=O)Cn1cnc2c1c(=O)n(C)c(=O)n2C | 6.2% | 23.7%
CCC(Oc1ccccc1F)C(=O)N1CCC(c2nc3ccccc3o2)CC1 (stereo not given) | -2.2% | -2.1%
CC(C)CCCC(C)NC(=O)C1CCN(c2nc(Cl)nc3nc[nH]c23)CC1 (stereo not given) | 2.4% | 10.6%
C=CCOc1ccccc1C(=O)Nc1cccc(C#N)c1 | -6.9% | 1.9%
COC(=O)COc1ccc2c(c1)OCC2=O | 1.8% | 0.0%
CCOCCn1ccc2c(OCC(=O)Nc3cc(C(F)(F)F)ccc3Cl)cccc2c1=O | -4.9% | -1.7%
CC(C)(/C=N/O)/[N+]([O-])=C/C=[N+](\[O-])C(C)(C)/C=N/O | 5.0% | 0.0%
COc1ccc(-c2ccc(CCC(=O)O)n2-c2ccccc2C(F)(F)F)cc1 | 43.2%[activator] | 16.2%
O=C(CCc1nnc2ccc(NCc3ccc4c(c3)OCO4)nn12)N1CCN(c2ccccc2)CC1 | -12.9% | 8.1%
COc1cc(CC(=O)OCc2ccccc2Br)cc(OC)c1OC | 20.0% | 35.6%[activator]
CSc1ccc(NC(=O)CC2C=CCC2)cc1 (stereo not given) | 28.9% | 161.8%[activator]
CCOc1ccc2c(c1)cc(C(=O)Nc1cccc(C)c1)n2C | 0.0% | 15.2%
Cc1ccsc1CNC(=O)c1cnccn1 | 14.1% | 4.2%
O=C(/C=C/c1ccco1)N(Cc1cccs1)Cc1cccs1 | 28.1% | 24.5%
CC(C)(CO)NC(=O)c1nc(-c2ccc(COc3ccc4c(c3)OCO4)cc2)no1 | ? | -24.8%
COC(=O)c1ccc(NC(=O)COC(=O)c2oc3ccccc3c2C)cc1 | -6.3% | 4.1%
Cc1ccsc1CNC(=O)CSCC#N | -4.9% | -3.9%
O=C(c1ccccc1F)N(Cc1ccco1)c1ccc(O)cc1 | -14.4% | -27.1%
Cn1c(=O)[nH]c(=O)c2c1nc(NCCCn1ccnc1)n2Cc1ccc(F)cc1 | 8.0% | 9.5%
COC(=O)c1ccc(/C=C/C(=O)c2cccs2)cc1 | -5.3%[1.06 µM] | 152.6%[activator]
Cc1cc(-c2ccc(S(=O)(=O)NCc3ccccc3Cl)s2)on1 | 10.9% | ?
Cc1ccc(-c2cc(NC(=O)COc3ccc(Cl)c(C)c3)on2)cc1 | 25.8% | 53.5%[activator]

Later entries
SMILES | 2A Renilla | 2A firefly
Cc1ccc(SCC(=O)NCc2ccc(CS(N)(=O)=O)cc2)c(C)c1 | 1.9% | 5.0%
O=C(NC1(C(F)(F)F)C(=O)Nc2c1c(=O)[nH]c(=O)n2Cc1ccco1)c1ccco1 (stereo not given) | 5.7% | -7.7%
CC(C)C(NC(=O)c1ccccc1I)c1cccs1 (stereo not given) | -9.3%[1.06 µM] | 0.0%
CCOC(=O)c1[nH]c(C)c(C=O)c1C | 16.0% | 0.0%
C=CCOc1nc2c(c(=O)n(Cc3ccc(Br)cc3)c(=O)n2C)n1C | -11.6% | -1.6%
O=C(Nc1cccc(S(=O)(=O)NC2=NCCC2)c1)C1(c2cccc(Cl)c2)CC1 | 16.8% | -7.4%
CCNC(=O)N(C)[C@H]1C[C@H]2c3[nH]c4c(-c5cccc(C)c5)cccc4c3CCN2C[C@H]1[C@H](C)O | -12.7% | -7.8%
Cc1ccc(O)c2ncccc12 | 2.3% | -7.9%[11.5 µM]
Oc1ccc(C2(c3ccc(Cl)cc3)CCCCC2)cc1 | 16.0% | 29.7%
COc1ccccc1NC(=O)Cn1c(=O)n(CCc2ccccc2)c(=O)c2c3c(sc21)CN(C(C)=O)CC3 | -21.9% | -10.4%
CC1=C(C(=O)c2ccccc2)C(c2cccc(Oc3ccc(Cl)cc3)c2)NC(=O)N1 (stereo not given) | -0.2% | -10.6%
CCCCCOc1ccc(C(=O)Nc2cccc3cccnc23)cc1 | 0.0% | 7.9%
COc1ccc(NC(=O)c2ccco2)cc1NC(=O)c1ccccc1[N+](=O)[O-] | -5.4% | 0.0%
CCCCCn1c(N2CCC(C(N)=O)CC2)nc2c1c(=O)[nH]c(=O)n2C | 1.5% | 1.9%
O=Cc1c[nH]c2cccc(C(=O)O)c12 | 6.0% | 2.0%
CC(=O)c1c(C)n[nH]c1C | 0.7% | 7.1%
CCOc1ccc(NC(=O)CCc2c(C)nc3c(-c4ccccc4)c(C)nn3c2C)cc1 | -12.7% | -8.6%
O=C(CN1C(=O)COc2ccc(S(=O)(=O)N3CCOCC3)cc21)NCc1ccc(Cl)cc1 | 1.8% | 0.9%
CN(C)CCN(CCc1ccccc1)C(=O)Nc1cccnc1 | -6.1% | 1.5%
CCN(C(=O)c1nn(-c2ccc(C)cc2)c(=O)c2c1c1ccccc1n2C)c1ccc(F)cc1 | -3.9% | -6.8%
Cc1ccc(S(=O)(=O)N(Cc2nc(-c3cccc(C)c3)no2)C2CCCCC2)cc1 | 80.0%[activator] | -4.6%
COc1ccc(/C=C(/C#N)c2nc3ccccc3[nH]2)cc1 | 213.2%[activator] | 144.6%[activator]
O=C(Nc1nnc(C2CC2)s1)c1csc(NC2CCCC2)n1 | 30.5%[activator] | 0.0%
CN(C(=O)COc1ccc2c(=O)c(Oc3ccccc3)coc2c1)c1ccccc1 | -16.9% | -6.8%
O=C(Nc1ccc(F)c(F)c1)c1nc2ccccc2nc1N1CCOCC1 | -3.6% | -6.0%
COC(=O)c1c(NC(=O)c2cc3ccccc3s2)sc(C)c1C | -5.9% | 0.0%
COc1ccc(S(=O)(=O)Oc2ccc3c(c2)O/C(=C\c2ccccc2)C3=O)cc1 | 4.3% | -3.7%
Cc1ccc2c(Cl)cc(Cl)c(OCC(=O)NC(N)=O)c2n1 | 10.8% | 34.8%
CCN(CC)S(=O)(=O)c1ccc(C(=O)NC2CC(=O)N(c3ccc(OC)c(OC)c3)C2)cc1 (stereo not given) | -11.3%&-4.3% | -5.6%&-7.7%
Cc1noc(CSc2ccc(C(=O)N3CCc4ccccc43)cc2)n1 | -0.6% | 21.5%

Taken from the entries so far (three entries):
SMILES | 2A Renilla | 2A firefly
Cc1ccc2c(Cl)cc(Cl)c(OCC(=O)NC(N)=O)c2n1 | 10.8% | 34.8%
CCN(CC)S(=O)(=O)c1ccc(C(=O)NC2CC(=O)N(c3ccc(OC)c(OC)c3)C2)cc1 (stereo not given) | -11.3%&-4.3% | -5.6%&-7.7%
Cc1noc(CSc2ccc(C(=O)N3CCc4ccccc43)cc2)n1 | -0.6% | 21.5%

Next section.
SMILES | 2A Renilla | 2A firefly
COc1cc2ccccc2cc1C(=O)N1CCN(CC(=O)Nc2cccc(F)c2)CC1 | -7.5% | 2.1%
Cc1ccc(C)c(Cn2c(=O)n(Cc3ccc(C(=O)NC4CCN(Cc5ccccc5)CC4)cc3)c(=O)c3ccccc32)c1 | -2.9% | -16.1%
CSc1ncc(Cl)c(C(=O)Nc2ccc(S(=O)(=O)N3CCCCC3C)cc2)n1 (stereo not given) | 64.4%[activator] | -19.3%
O=C(/C=C/c1cccnc1)NCCC1CCCCC1 | -10.5%[1.06 µM] | 0.0%
Cc1cc(C)c2nc(-c3ccc(Cl)s3)cc(C(=O)O)c2c1 | 7.8% | 120.2%[activator]
O=C(CSc1nc2ccccc2c(=O)n1CC1CCCO1)Nc1ccc2[nH]c(=O)[nH]c2c1 (stereo not given) | 15.2% | 15.4%
Cc1ccccc1NC(=O)c1nc2ccccc2nc1Cl | ? | 21.9%
NC(=O)C1CCN(C(=O)c2cc(C3CC3)nc3ccccc23)CC1 | 99.2%[activator] | -0.6%
Cc1ccc(S(=O)(=O)Nc2ccccc2C(=O)NCc2cccnc2)cc1 | 31.4%[activator] | -7.0%
N#Cc1nc(C2CC2)oc1N1CCN(Cc2ccc(Cl)cc2Cl)CC1 | ? | ?
CCCn1c(=O)n(CC(=O)Nc2ccc(F)cc2)c(=O)c2c1nc(C)n2CCOC | -5.4% | -6.7%
COc1cc(/C=N/O)ccc1OC(C)C | 15.0% | 0.0%
CC(C)(CNC(=O)CCc1ncc(-c2ccc(F)cc2)o1)N1CCOCC1 | 2.6% | 43.2%[activator]
O=C(CCc1cc(Cl)no1)Nc1ccc2oc(-c3ccc(F)cc3)cc(=O)c2c1 | 1.8% | 70.4%[activator]
CCC(=O)OC1(c2ccccc2)CC(C(C)(C)C)CN(C)C1C (stereo not given) | -5.2% | 1.0%
O=C(NCC(=O)N1CCCN(S(=O)(=O)c2ccc(F)cc2)CC1)NCc1ccccc1 | 2.7% | 14.5%

Single records, as listed above. Order of screens: 2A Renilla | 2A firefly
`Cc1ccc(S(=O)(=O)Nc2ccccc2C(=O)NCc2cccnc2)cc1` in the list: 31.4%[activator] | -7.0%
`CSc1ncc(Cl)c(C(=O)Nc2ccc(S(=O)(=O)N3CCCCC3C)cc2)n1` (stereo not given) in the list: 64.4%[activator] | -19.3%
